Vaccinia inh: Vaccinia orthopox stage-specific inhibition; activity change (mCherry), % (no concentration beside the values); 0.01% of 89,000 active; Vaccinia-infected cells, mCherry/Venus stage reporter fluorescence; hits give low values; some inactives read as strong as hits;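 active = mCherry past -33% and 40 or more points under the early reporter, replicates agreeing; inconclusive = past -33% without that gap or agreement; tested in A549 cells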;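 also: scaled between vehicle wells and reference inhibitor wells; 23 nL library stock went into each well; one replicate is shown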
Vaccinia inh Venus: recorded beside Vaccinia inh, whose call it bears; activity change (Venus), %; measured here: Venus reporter, other viral stage;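 negative = less Venus signal; first of two replicates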
Numbers without * were called inactive; ? = inconclusive; . = no result given. Some of the compounds tested; rates above refer to the full screens.

SMILES	Vaccinia inh	Vaccinia inh Venus
C/C=C/c1ccc([C@H]2[C@@H](CO)N[C@@H]2CNC(=O)C2CCCCC2)cc1	-30	-19
C[C@@H]1CN([C@@H](C)CO)C(=O)c2ccccc2-c2ccccc2CO[C@H]1CN(C)C(=O)c1ccncc1	19	18
CCO[C@@H]1OC(C(=O)NCc2ccccc2)=C[C@H](c2ccc(Br)cc2)[C@H]1CCCO	-21	-14
O=C(NCC[C@H]1CC[C@H](NC(=O)Nc2cc(F)ccc2F)[C@H](CO)O1)Nc1ccc(Cl)cc1	-11	-4
C[C@H](CO)N1C[C@H](C)[C@@H](CN(C)C(=O)Cc2ccccn2)Oc2ncc(-c3ccncc3)cc2C1=O	32	20
CNC[C@H]1Oc2c(NC(=O)C3CCOCC3)cccc2C(=O)N([C@H](C)CO)C[C@@H]1C	11	14
C[C@H]1CCCCO[C@H](CN(C)C(=O)Nc2ccc(F)cc2)[C@@H](C)CN([C@@H](C)CO)C(=O)c2cc(NS(=O)(=O)c3ccc(Cl)cc3)ccc2O1	-16	-14
C[C@@H]1CN([C@H](C)CO)C(=O)c2cc(NC(=O)CCCN(C)C)ccc2O[C@@H](C)CCCCO[C@H]1CN(C)C(=O)Nc1ccc(F)cc1	5	11
CCCNC(=O)N1C[C@H](C)[C@H](OC)CN(C)C(=O)c2cc(NS(=O)(=O)CC)ccc2OC[C@H]1C	-6	-4
COC(=O)C[C@H]1CC[C@H]2[C@H](COc3ccc(NC(=O)c4cccc(F)c4)cc3C(=O)N2C)O1	-2	9
C[C@@H]1CN([C@H](C)CO)C(=O)c2cc(NC(=O)Cc3ccccc3)ccc2O[C@@H]1CN(C)Cc1ccccc1	-9	3
CCN(C[C@H]1[C@H](c2ccccc2)[C@@H](CO)N1S(C)(=O)=O)C(=O)C1CCCC1	7	7
C[C@@H]1CCCCO[C@H](CN(C)C(=O)c2ccncc2)[C@@H](C)CN([C@H](C)CO)C(=O)c2cc(NS(=O)(=O)c3ccc(Cl)cc3)ccc2O1	20	4
O=C(Nc1ccccc1)[C@H]1[C@H](CO)[C@H]2Cn3c(cccc3=O)[C@@H]1N2C(=O)c1ccccc1	21	14
COCC#Cc1cnc2c(c1)C(=O)N([C@H](C)CO)C[C@@H](C)[C@H](CN(C)C(=O)Cc1cccnc1)O2	15	11
C[C@@H]1CCCCO[C@@H](CN(C)Cc2ccc(C(F)(F)F)cc2)[C@H](C)CN([C@@H](C)CO)C(=O)c2cc(NS(=O)(=O)c3cccs3)ccc2O1	?	.
C[C@H](CO)N1C[C@H](C)[C@H](CN(C)C(=O)Cc2ccccn2)Oc2ncc(C#CC3CC3)cc2C1=O	14	-6
C/C=C/c1ccc2c(c1)O[C@H](CN(C)C(=O)NCCC)[C@@H](C)CN([C@H](C)CO)S2(=O)=O	-3	4
C[C@H]1CN([C@@H](C)CO)C(=O)c2cc(NC(=O)CCCCCC(=O)Nc3ccccc3N)ccc2O[C@@H]1CN(C)C(=O)Nc1ccc(F)cc1	17	10
CC(C)NC(=O)N(C)C[C@@H]1OCCCC[C@@H](C)Oc2ccc(NC(=O)Nc3ccccc3)cc2C(=O)N([C@@H](C)CO)C[C@@H]1C	7	4
CN1c2ccc(C#Cc3cccnc3)cc2[C@@H]2[C@@H](CCN2C(=O)C2CCOCC2)[C@H]1CO	26	12
COc1cccc(CNC(=O)C[C@H]2C=C[C@@H](NS(=O)(=O)c3ccccc3OC)[C@H](CO)O2)c1	9	13
COc1ccc(-c2ccc3c(c2)O[C@@H](CN(C)C)[C@H](C)CN([C@H](C)CO)S3(=O)=O)cc1	-8	-13
Cn1cnc(CCNC(=O)C[C@H]2CC[C@H]3[C@@H](COC[C@H](O)CN3C(=O)Nc3ccccc3)O2)c1	-5	3
N#C[C@H]1[C@H](c2ccc(C3=CCCCC3)cc2)[C@@H](CO)N1C(=O)Cc1ccncc1	-24	-13

Shown bar-delimited: part of the list above
structure | Vaccinia inh | Vaccinia inh Venus
COCC#Cc1cnc2c(c1)C(=O)N([C@H](C)CO)C[C@@H](C)[C@H](CN(C)C(=O)Cc1cccnc1)O2 | 15 | 11
C[C@@H]1CCCCO[C@H](CN(C)C(=O)c2ccncc2)[C@@H](C)CN([C@H](C)CO)C(=O)c2cc(NS(=O)(=O)c3ccc(Cl)cc3)ccc2O1 | 20 | 4
C[C@H]1CN([C@@H](C)CO)C(=O)c2cc(NC(=O)CCCCCC(=O)Nc3ccccc3N)ccc2O[C@@H]1CN(C)C(=O)Nc1ccc(F)cc1 | 17 | 10
C/C=C/c1ccc2c(c1)O[C@H](CN(C)C(=O)NCCC)[C@@H](C)CN([C@H](C)CO)S2(=O)=O | -3 | 4

Ordered by heavy-atom count (largest number first): some entries from above.
SMILES	Vaccinia inh	Vaccinia inh Venus
COCC#Cc1cnc2c(c1)C(=O)N([C@H](C)CO)C[C@@H](C)[C@H](CN(C)C(=O)Cc1cccnc1)O2	15	11
CN1c2ccc(C#Cc3cccnc3)cc2[C@@H]2[C@@H](CCN2C(=O)C2CCOCC2)[C@H]1CO	26	12
N#C[C@H]1[C@H](c2ccc(C3=CCCCC3)cc2)[C@@H](CO)N1C(=O)Cc1ccncc1	-24	-13

Following part.
SMILES	Vaccinia inh	Vaccinia inh Venus
C[C@@H]1CN([C@@H](C)CO)C(=O)c2cc(C#CC3(O)CCCC3)cnc2O[C@H]1CN(C)C(=O)Cc1ccncc1	5	3
CN1C(=O)c2cc(NS(=O)(=O)c3cccc(F)c3)ccc2OC[C@H]2O[C@@H](CC(=O)NCCN3CCCCC3)CC[C@H]21	0	7
O=C(c1ccc(F)cc1)N1CC(=O)N2[C@@H](CO)[C@H](c3ccc(C#CC4CCCCC4)cc3)[C@@H]2C1	-8	-13
COc1ccc(CN(C)C[C@H]2Oc3ccc(NS(=O)(=O)c4c(C)noc4C)cc3C(=O)N([C@H](C)CO)C[C@@H]2C)cc1	9	-1
C[C@@H]1CN([C@@H](C)CO)C(=O)c2cc(NC(=O)NC3CCCCC3)ccc2O[C@H]1CN(C)S(C)(=O)=O	2	9
CCNC(=O)[C@@H]1[C@@H](CO)[C@@H]2Cn3c(cccc3=O)[C@H]1N2C(=O)C1CCC1	13	17
O=C(CC1CC1)N[C@H]1C[C@@H]2O[C@@H](CO)CC[C@@H]2O[C@@H]1CCc1ccc(C#Cc2ccccc2)cc1	-35	-19
C/C=C/c1ccc([C@@H]2[C@H]3CN(C(=O)Cc4ccncc4)CCCCN3[C@H]2CO)cc1	15	18
CN(C)C(=O)C[C@H]1C[C@H]2c3cc(NC(=O)Nc4ccccc4F)ccc3O[C@H]2[C@H](CO)O1	4	2
C[C@@H]1CN([C@@H](C)CO)C(=O)c2cc(NC(=O)CCC(F)(F)F)ccc2O[C@@H](C)CCCCO[C@H]1CN(C)S(=O)(=O)c1cccs1	-21	-24
O=C(N[C@H]1C=C[C@@H](CC(=O)N2CCOCC2)O[C@H]1CO)c1ccc2c(c1)OCO2	-1	-4
Cc1noc(C)c1S(=O)(=O)N(C)C[C@@H]1Oc2ccc(NS(=O)(=O)c3cccs3)cc2CC(=O)N([C@@H](C)CO)C[C@H]1C	15	9
O=C(Nc1cccc(F)c1)N[C@@H]1CC[C@@H](CCn2cc(Cc3ccccc3)nn2)O[C@@H]1CO	9	7
O=C(C[C@H]1C[C@@H]2c3cc(NC(=O)CC4CC4)ccc3O[C@@H]2[C@H](CO)O1)NCCc1ccccc1	2	5
O=C(CC1CC1)N1CC2(C1)[C@H](c1ccccc1)[C@H](CO)N2C(=O)c1cccnc1	9	12
C/C=C/c1cnc2c(c1)C(=O)N([C@@H](C)CO)C[C@@H](C)[C@@H](CN(C)C(=O)c1cccc(F)c1)O2	0	7
CCC(=O)N1[C@H](CO)[C@H](c2ccc(C#CC3CCCCC3)cc2)[C@@H]1CNC(C)C	-25	-6
C[C@@H]1CN([C@@H](C)CO)C(=O)c2cccc(NC(=O)c3ccc(-c4nccs4)cc3)c2O[C@@H]1CN(C)C(=O)Nc1cccc2ccccc12	-18	-14
O=C(C[C@@H]1CC[C@@H](NC(=O)C2CCC2)[C@@H](CO)O1)Nc1nccs1	8	4
CCC(=O)N1CC(=O)N2[C@@H](CO)[C@@H](c3ccc(C#CC4CCCCC4)cc3)[C@@H]2C1	?	.
CC(C)CC#Cc1ccc2c(c1)O[C@H](CN(C)Cc1ccc(C(=O)O)cc1)[C@@H](C)CN([C@H](C)CO)S2(=O)=O	?	.
C[C@H](CO)N1C[C@H](C)[C@H](CN(C)S(=O)(=O)c2ccc(F)cc2)Oc2ncc(-c3cccc(F)c3)cc2C1=O	-11	-11
CN(C)CC(=O)N[C@@H]1CC[C@@H](CCNC(=O)C2CCCCC2)O[C@H]1CO	3	-2
Cc1ccc(S(=O)(=O)Nc2ccc3c(c2)C(=O)N([C@H](C)CO)C[C@@H](C)[C@H](CN(C)S(=O)(=O)c2ccc(C)cc2)OCCCC[C@@H](C)O3)cc1	?	.
CCS(=O)(=O)NCC[C@@H]1CC[C@H](NC(=O)Nc2cc(Cl)cc(Cl)c2)[C@@H](CO)O1	-10	4
Continued:
SMILES	Vaccinia inh	Vaccinia inh Venus
O=C(Nc1ccccc1F)N1C[C@@H]2[C@H](c3ccccc31)[C@@H](CO)N2C(=O)C1CCOCC1	6	8
C[C@@H]1CN([C@H](C)CO)C(=O)c2cc(C#Cc3ccccc3)cnc2O[C@H]1CN(C)S(=O)(=O)c1ccccc1F	-22	-10
COc1cccc(C#Cc2ccc([C@H]3[C@H](C#N)N(C(=O)C4CCCC4)[C@H]3CO)cc2)c1	-25	-19
COc1ccc(-c2ccc([C@@H]3[C@H](C#N)N(C(=O)NC(C)C)[C@H]3CO)cc2)cc1	-12	-6
C[C@H](CO)N1C[C@H](C)[C@@H](CN(C)C)Oc2ccc(NS(=O)(=O)c3ccc(Cl)cc3)cc2C1=O	2	-1
O=C(NC[C@H]1CC[C@@H]2[C@@H](CN2S(=O)(=O)c2ccccc2)O1)NC1CCCCC1	18	16
O=C(C[C@H]1CC[C@H](NC(=O)Nc2ccccc2)[C@@H](CO)O1)NCc1cccc(F)c1	4	4
CNC[C@@H]1OCCCC[C@@H](C)Oc2ccc(NC(=O)Nc3ccc4c(c3)OCO4)cc2C(=O)N([C@H](C)CO)C[C@@H]1C	13	25
CO[C@@H]1CN(C)C(=O)c2ccc(NC(=O)Nc3ccccc3)cc2OC[C@H](C)N(C(=O)CC2CC2)C[C@H]1C	9	-1
O=C(NC1CCC1)[C@H]1[C@H](CO)[C@H]2Cn3c(ccc(C4=CCCCC4)c3=O)[C@@H]1N2CC1CC1	2	8
Cc1noc(C)c1NC(=O)Nc1cccc2c1O[C@@H](CN(C)Cc1ccc(C(=O)Nc3ccccc3N)cc1)[C@@H](C)CN([C@H](C)CO)C2=O	7	4
COCC(=O)N1[C@@H](CO)[C@H](c2ccccc2)C12CN(C(=O)NC1CCCCC1)C2	5	7
O=C(C[C@@H]1C[C@@H]2c3cc(NC(=O)Nc4ccc(C(F)(F)F)cc4)ccc3O[C@@H]2[C@H](CO)O1)NCc1ccc(Cl)cc1	-17	-4
CO[C@H]1CC[C@H]2CCOc3c(C#N)cccc3C(=O)N(C)[C@H](C)C(=O)N(C)C[C@H]1O2	9	-4
C[C@@H]1CN([C@H](C)CO)C(=O)c2cc(NC(=O)Nc3ccc(F)cc3)ccc2O[C@@H](C)CCCCO[C@@H]1CN(C)Cc1ccc(C(F)(F)F)cc1	-19	-22
C[C@@H]1CN([C@@H](C)CO)C(=O)c2cc(C#C[C@@H](C)O)cnc2O[C@@H]1CN(C)Cc1ccc(-c2ccccc2)cc1	-19	-14
O=C(Cc1ccccn1)N1CC(=O)N2[C@@H](CO)[C@H](c3ccc(-c4ccccc4)cc3)[C@@H]2C1	2	0
C[C@H]1CN([C@@H](C)CO)S(=O)(=O)c2ccc(-c3ccccc3F)cc2O[C@@H]1CN(C)C(=O)C1CC1	-20	-5
CCS(=O)(=O)Nc1ccc2c(c1)C(=O)N(C)[C@@H]1CC[C@H](CC(=O)N3CCN(C)CC3)O[C@@H]1CO2	11	14
C[C@H](CO)N1C[C@H](C)[C@H](CN(C)C(=O)Nc2ccc3c(c2)OCO3)Oc2ccc(NS(=O)(=O)c3cn(C)cn3)cc2CC1=O	4	0
CCC(=O)N1C[C@@H](C)[C@H](OC)CN(C)C(=O)c2ccc(NC(=O)c3ccno3)cc2OC[C@@H]1C	8	49
C[C@@H]1CN([C@@H](C)CO)C(=O)c2cc(NC(=O)C3CC3)ccc2O[C@H]1CN(C)C(=O)Nc1ccc(C(F)(F)F)cc1	6	11
C[C@@H]1CN([C@@H](C)CO)S(=O)(=O)c2ccc(Br)cc2O[C@H]1CN(C)Cc1ccc(-c2ccccc2)cc1	-9	-11
COc1ccc(-c2ccc([C@@H]3[C@@H](CO)N4C(=O)CN(C(=O)c5cccnc5)C[C@@H]34)cc2)cc1	-2	-2
CNC[C@H]1Oc2ccc(NC(=O)Nc3ccc(OC)cc3)cc2CC(=O)N([C@@H](C)CO)C[C@H]1C	7	-1
C[C@H](CO)N1C[C@H](C)[C@H](CN(C)Cc2ccc(C(=O)O)cc2)Oc2ccc(NS(=O)(=O)c3cn(C)cn3)cc2C1=O	9	5
C[C@H](CO)N1C[C@H](C)[C@H](CN(C)C(=O)c2ccncc2)OCCCC[C@H](C)Oc2ccc(NS(C)(=O)=O)cc2C1=O	7	0
C[C@H]1CN([C@@H](C)CO)C(=O)c2cc(NS(=O)(=O)c3ccc(F)cc3)ccc2O[C@@H]1CN(C)C(=O)Nc1ccc(C(F)(F)F)cc1	12	15
O=C(CC(F)(F)F)N1C[C@@H]2[C@H](c3ccccc31)[C@@H](CO)N2C(=O)c1cccnc1	-2	4

An excerpt taken from the entries so far:
SMILES	Vaccinia inh	Vaccinia inh Venus
O=C(NC[C@H]1CC[C@@H]2[C@@H](CN2S(=O)(=O)c2ccccc2)O1)NC1CCCCC1	18	16
O=C(C[C@H]1CC[C@H](NC(=O)Nc2ccccc2)[C@@H](CO)O1)NCc1cccc(F)c1	4	4
CNC[C@@H]1OCCCC[C@@H](C)Oc2ccc(NC(=O)Nc3ccc4c(c3)OCO4)cc2C(=O)N([C@H](C)CO)C[C@@H]1C	13	25
CO[C@@H]1CN(C)C(=O)c2ccc(NC(=O)Nc3ccccc3)cc2OC[C@H](C)N(C(=O)CC2CC2)C[C@H]1C	9	-1

Bioassay records (PubChem)
